ClpP mod: qHTS Assay for Activators of ClpP; ATP-dependent Clp protease proteolytic subunit (Bacillus subtilis (strain 168)), P80244; purified B. subtilis ClpP, FRET peptide cleavage, 20 min; Potency, µM (highest dose often 57.5 µM), for the others: at the highest dose activity change, negative = active; 1.9% of 340,000 active; AID 651965, 2013; active = well fitted falling curve with a large enough effect; inconclusive = small, poorly fitted or top-dose-only effect; inactive = no such curve, though single readings can be large or run the other way; further: potency means the concentration at half of the fitted maximal effect; the source files actives as falling curves though it sought activators and does not explain the sign; nearly all actives have a fitted effect of over 65% in size; many hits overshoot -100%
Target sequence (P80244 whole entry, looked up): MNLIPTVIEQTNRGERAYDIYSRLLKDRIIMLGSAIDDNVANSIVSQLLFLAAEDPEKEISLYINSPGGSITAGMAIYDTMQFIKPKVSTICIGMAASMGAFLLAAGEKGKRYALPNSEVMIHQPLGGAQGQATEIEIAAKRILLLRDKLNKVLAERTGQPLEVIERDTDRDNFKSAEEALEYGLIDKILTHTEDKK
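Buffer: 100 mM Tris/HCl pH8, 100 mM KCl, 0.05% low protease BSA, 2.5% glycerol, 0.01% Tween-20. ClpP 10 microg/mL final; 20 min RT; delta FRET normalized to ADEP and DMSO controls.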
TRPV1 PAM: enhances activation of the human vanilloid receptor TRPV1; potentiation, % at 8.33 µM; 0.02% of 320,000 active; AID 540277; TRPV1-expressing cells, Fluo-8 calcium influx, capsaicin EC20 potentiation; host cell line not named in the record; control for the full effect not named in the record; active means potentiation above 80%; inconclusive means 30% to 80%; inactive means below 30%; further: 0% is about no effect
Target sequence (Q8NER1 whole entry, looked up): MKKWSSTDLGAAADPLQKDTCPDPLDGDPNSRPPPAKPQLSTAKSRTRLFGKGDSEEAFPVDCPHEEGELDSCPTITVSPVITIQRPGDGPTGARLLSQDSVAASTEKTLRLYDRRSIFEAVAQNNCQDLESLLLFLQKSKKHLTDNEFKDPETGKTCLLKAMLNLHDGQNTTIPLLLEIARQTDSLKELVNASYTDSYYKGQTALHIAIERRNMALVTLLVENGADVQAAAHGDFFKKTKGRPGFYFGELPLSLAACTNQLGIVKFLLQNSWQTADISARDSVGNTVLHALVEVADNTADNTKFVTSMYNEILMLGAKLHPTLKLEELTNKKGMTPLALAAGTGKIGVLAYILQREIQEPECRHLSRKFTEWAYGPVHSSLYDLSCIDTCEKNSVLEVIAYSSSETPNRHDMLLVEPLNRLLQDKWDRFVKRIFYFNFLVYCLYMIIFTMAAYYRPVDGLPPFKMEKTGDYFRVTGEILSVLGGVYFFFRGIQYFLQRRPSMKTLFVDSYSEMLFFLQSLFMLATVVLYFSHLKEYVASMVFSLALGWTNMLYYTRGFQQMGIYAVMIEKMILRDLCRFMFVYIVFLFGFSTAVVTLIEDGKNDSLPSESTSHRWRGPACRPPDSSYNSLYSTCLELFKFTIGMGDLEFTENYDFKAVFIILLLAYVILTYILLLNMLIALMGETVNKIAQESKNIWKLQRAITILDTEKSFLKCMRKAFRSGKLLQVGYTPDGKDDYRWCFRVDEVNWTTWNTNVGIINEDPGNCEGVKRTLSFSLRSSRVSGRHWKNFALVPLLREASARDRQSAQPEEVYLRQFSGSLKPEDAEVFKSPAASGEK
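Cells expressing TRPV1 were dye-loaded with Fluo-8 and read kinetically: 10 s baseline, 3 min after compound (agonist portion), then 2 min after EC20 capsaicin (allosteric enhancer portion). Calcium-bound dye fluorescence at 480/520 nm.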
gsp ag: gsp mutant agonism | 0.13% of 340,000 active | gsp mutant cells, cAMP HTRF, 30 min; control for the full effect not named in the record | Potency, µM (series often up to 76.9 µM), inactives show at the top dose activation (cAMP increase), most hits filed as activators; active = well fitted activation curve with a large enough effect; inconclusive = small, poorly fitted or top-dose-only effect, or another doubt; inactive = no such curve, though single readings can be large or run the other way; cell line not stated here;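 further: phosphodiesterase inhibitor Ro 20-1724 added with compounds to block cAMP breakdown; potency means the concentration at half of the fitted maximal effect; nearly all actives have a fitted effect of over 60% in size; about a fifth of the inactives were tested at one dose only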
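Cells stably selected in G418 were plated at 2000/well, grown 16-24 hr, then given compounds in DMSO with the PDE inhibitor […] (300 uM solution added) for 30 min at 37C; cAMP was read by HTRF.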
Sfp inh: inhibitors of Bacillus subtilis Sfp phosphopantetheinyl transferase | Q9F4F7 | Biochemical Sfp PPTase activity, qHTS | Potency, µM, for inactives: max response, negative = inhibition, most hits filed as inhibitors | 3.5% of 310,000 active | AID 1490; active means well fitted inhibition curve with a large enough effect; inconclusive means small, poorly fitted or top-dose-only effect, or another doubt; inactive means no such curve, though single readings can be large or run the other way;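 further: the enzyme is Sfp with the accession as filed and its product quenches rhodamine fluorescence; potency means the concentration at half of the fitted maximal effect; 0% = enzyme reaction without inhibitor and -100% = no enzyme wells; top concentration of the series not given in the record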
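Fluorescence-quenching assay with 15 nM Sfp, 5 uM rhodamine-CoA and 12.5 uM BHQ-2-labelled ybbR peptide in pH 7.6 Hepes/MgCl2 buffer. Enzyme was pre-incubated with compound for 15 min at room temperature. Rate was taken from the 30-min fluorescence change (525/598 nm).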
CtBP-E1A inh: blocks the CtBP interaction with E1A. activity change, % (test concentration not listed). AlphaScreen GST-E1A/His-CtBP binding, 1536-well; active compounds read low; control for the full effect not named in the record. 0.49% of 340,000 active; in the data active means activity change below about -65%; inconclusive means about -30% to -65%; inactive means above about -30%; further: on the % scale 0 is the no-effect control and ±100 the full control effect
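Steps: dispense buffer (Tris pH 8.0, NaCl 300 mM, TCEP 1 mM, BSA, Tween 20); add 5X protein mix (GST-E1A, His-CtBP, 125 nM each); pin 23 nL compound; 2 h at 37 °C, dark; add 5X beads (50 ug/mL); 1 h; read.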
Menin-MLL FL inh: displaces fluorescein MLL peptide from human menin | Fluorescence polarization, fluorescein-MLL peptide displacement from menin | FP activity change, % at 61.4 µM | 290,000 tested, under 10 active | AID 1766; inconclusive = falling polarisation curve, or a change in total fluorescence; inactive = total fluorescence flat and polarisation flat or rising; no compound was filed as active; the % refers to the polarisation; negative = inhibition;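 further: % of control where 0% means no effect; inhibitors lower the polarisation; unlabelled MLL peptide was the positive control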
gsp antagonist: gsp mutant antagonism; gsp-mutant cells, cAMP HTRF, 30 min; control for the full effect not named in the record; Potency, µM (top dose mostly 76.9 µM), for inactives: top-dose activity change, negative = inhibition, usual class: inhibitors; 0.4% of 340,000 active; active = falling curve of any shape with a large fitted effect; inconclusive = falling curve, mostly with a smaller effect; inactive = flat or rising curve; cell line not stated here;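 further: intracellular cAMP measured with PDE inhibitor Ro 20-1724 present during compound exposure; potency means the concentration at half of the fitted maximal effect; on the % scale 0 is the no-effect control and ±100 the full control effect; nearly all actives have a fitted effect of over 65% in size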
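Cells in G418 medium, seeded 16-24 h, 37C; buffer exchange to DPBS + 1 mM CaCl2, 0.5 mM MgCl2, 0.05% BSA; cpds in DMSO + […] (300 uM stock), 30 min 37C; HTRF cAMP detection.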
Active calls of the source: *; ? = inconclusive; / = no result given; & = joins results of further samples; [ ] = dose if it differs, or a comment.

SMILES	ClpP mod	TRPV1 PAM	gsp ag	Sfp inh	CtBP-E1A inh	Menin-MLL FL inh	gsp antagonist
Cc1ccc(NC(=O)CSc2nnc(NC(=O)c3ccco3)s2)cc1	-0.3%	-4	-96%[inhibitor]	-9%	/	-2.8	-21%
C=CCN=Cc1sc2ccc(OCC)cc2c1O	/	0	/	?	/	5.8	/
COC(=O)C1=C(C)OC(N)=C(C#N)C1c1c(C)nn(C)c1C (stereo not given)	-1.0%	3	-8%	6%	-8	-11	-3%
C[C@@H](O)CC#Cc1ccc2oc(=O)c(-n3cc(-c4ccsc4)nn3)cc2c1	5.2%	-6	/	/	-2	/	0%
CCC(=O)N1N=C(c2ccc(C)o2)CC1c1ccc(N(C)C)cc1 (stereo not given)	-0.4%	-10	28%	-1%	-1	0.2	5%
CC1(C)CC(=O)C=C(Nc2ccccc2)C1	-6.1%	0	-3%[15.4 µM]	25%	3	-0.5	-8%
Cc1ccc(NC(=O)CN(C)C(=O)COC(=O)COc2ccc(C#N)cc2)cc1	2.3%	7	-12%	/	-20	/	-12%
CN(C(=O)c1ccc(NC(=O)c2ccco2)cc1)c1ccccc1	-0.1%	3	13%	21%	1	-1.2	2%
N#Cc1ccccc1COc1cccc2c1CCCC2O (stereo not given)	/	-19	-4%	10%	3	0.1	-9%
COC(=O)[C@@H]1[C@@H](C#N)C2(c3ccccc3-c3ccccc32)N(c2ccc(Cl)cc2)N1C#N	-11%	-8	20%[15.4 µM]	?	8	5.2	9%
O=C(CN1C(=O)C2C3C=CC(C3)C2C1=O)NC1CCCc2ccccc21 (stereo not given)	0.0%	18	-28%	4%	2	-0.8	3%
COc1cccc(CN(c2ccccc2C(=O)O)S(=O)(=O)c2ccc(C)cc2)c1	-0.8%	/	22%	/	4	/	-8%
CC1=C(C(N)=O)S(=O)(=O)c2ccccc21	0.9%	10	7%	7%	/	?	2%
COc1ccccc1/C=C/c1onc(C)c1S(=O)(=O)N1CCC(C(=O)NC(C)C)CC1	63%	2	-40%[inhibitor]	-9%	2	1.1	-1%
CC(C)(C)OC(=O)N1CCN(C(=O)Nc2ccc3c(c2)OCCO3)CC1	/	20	4%[15.4 µM]	12%	13	2.2	0%
COc1cccc(-c2csc(N3CCN(CC(=O)NNC(=O)c4ccco4)CC3)n2)c1	-1.7%	?	-20%	-16%	/	8.0	-20%
COC(=O)C1=C(C(=O)OC)[C@@H]2N(C)c3ccccc3[C@@]23C[C@@H](C(=O)OC)N(C(=O)c2cccs2)C3=N1	-3.6%	-20	/	4%&2%	0	-5.4[11.7 µM]	-1%
N#Cc1ccc(C23CC4(C2)[C@H](CN(CC2CCCCC2)[C@@H]4c2ccccc2)C3c2ccc(C(F)(F)F)cc2)cc1 (stereo not given in full)	/	-12	/	8%&5%	/	3.5&15	/
CC1CCN(c2ccc(C(=O)O)cc2NS(=O)(=O)c2ccc(Br)cc2)CC1	20µM*	11	22%	-13%	-6	-1.7	-6%
CNC(=O)Nc1ccc2nc(C)oc2c1	1.3%	19	3%	14%	/	-1.2	2%

3 of the entries above in order of their number in CtBP-E1A inh, ascending.
structure,CtBP-E1A inh
CCC(=O)N1N=C(c2ccc(C)o2)CC1c1ccc(N(C)C)cc1 (stereo not given),-1
COc1ccccc1/C=C/c1onc(C)c1S(=O)(=O)N1CCC(C(=O)NC(C)C)CC1,2
N#Cc1ccccc1COc1cccc2c1CCCC2O (stereo not given),3

Laid out differently: four of the compounds above
Molecule | ClpP mod | TRPV1 PAM | gsp ag | Sfp inh | CtBP-E1A inh | Menin-MLL FL inh | gsp antagonist
COC(=O)C1=C(C)OC(N)=C(C#N)C1c1c(C)nn(C)c1C (stereo not given) | -1.0% | 3 | -8% | 6% | -8 | -11 | -3%
CC1(C)CC(=O)C=C(Nc2ccccc2)C1 | -6.1% | 0 | -3%[15.4 µM] | 25% | 3 | -0.5 | -8%
CNC(=O)Nc1ccc2nc(C)oc2c1 | 1.3% | 19 | 3% | 14% | / | -1.2 | 2%
CC(C)(C)OC(=O)N1CCN(C(=O)Nc2ccc3c(c2)OCCO3)CC1 | / | 20 | 4%[15.4 µM] | 12% | 13 | 2.2 | 0%

An excerpt from above in order of count of non-hydrogen atoms, smallest number first.
SMILES	ClpP mod	TRPV1 PAM	gsp ag	Sfp inh	CtBP-E1A inh	Menin-MLL FL inh	gsp antagonist
CNC(=O)Nc1ccc2nc(C)oc2c1	1.3%	19	3%	14%	/	-1.2	2%
O=C(CN1C(=O)C2C3C=CC(C3)C2C1=O)NC1CCCc2ccccc21 (stereo not given)	0.0%	18	-28%	4%	2	-0.8	3%
C[C@@H](O)CC#Cc1ccc2oc(=O)c(-n3cc(-c4ccsc4)nn3)cc2c1	5.2%	-6	/	/	-2	/	0%
Cc1ccc(NC(=O)CN(C)C(=O)COC(=O)COc2ccc(C#N)cc2)cc1	2.3%	7	-12%	/	-20	/	-12%

Other compounds follow:
SMILES	ClpP mod	TRPV1 PAM	gsp ag	Sfp inh	CtBP-E1A inh	Menin-MLL FL inh	gsp antagonist
Cc1cc(=O)oc2c3c(cc(OCC(=O)NCC(=O)N[C@H](C(=O)O)C(C)C)c12)OC(C)(C)CC3	3.4%	3	?	17%	-5	1.5	9%
Cc1[nH]n(-c2ccccc2)c(=O)c1/C=C1/C=c2ccccc2=N1	-0.9%	4	18%[15.4 µM]	22%	-8	-9.1	9%
Cc1ccc(C(=O)CC(C(=O)O)c2cn(CCC#N)c3ccccc23)cc1 (stereo not given)	-4.3%	/	11%	5%	-2	6.5	-9%
CCOC(=O)N1CCN(C(=O)c2cn(CCOC)c(=O)c3c2c2ccccc2n3C)CC1	14µM*	7	13%	7%	5	3.2	-15%
COc1ccc(OCCC(=O)OCC(=O)Nc2cccc(S(=O)(=O)N3CCOCC3)c2)cc1	/	11	-4%[15.4 µM]	16%	-20	0.2	/
O=C(O)CC1(CC(=O)N2CCOCC2)CCCC1	/	?	-7%[15.4 µM]	20%	2	-1.8	7%
O=S(=O)(NCc1cn2ccccc2n1)c1ccccc1F	1.9%	9	-2%	14%	0	2.0	7%
O=C(NCC1CCCO1)c1nnc(Cc2ccc(F)cc2)o1 (stereo not given)	0.3%	-11	?	-4%	6	6.0	2%
CC1=CC(C)(C)NC(=S)N1c1cccc2cc(S(=O)(=O)O)ccc12	-22%	7	-17%	20µM*	/	?	9%
CCOC(=O)C1CCN(C(=O)C2c3ccccc3C(=O)N(C)C2c2ccc(OC)cc2)CC1 (stereo not given)	0.4%	-2	-13%	9%	1	3.3	-2%
Cc1cccc(OCC(=O)Nc2nnc(S(=O)(=O)N3CCCCCC3)s2)c1	0.4%&-0.7%	6	3%	11%	0	-2.6	-20%
Cc1ccc(S(=O)(=O)N2CCCCC2)cc1NC(=O)c1ccc(Cl)nc1	-1.4%	-14	-6%	/	-5	/	-17%
COc1ccc(-c2csc(C3=C(O)CN(Cc4ccc(S(N)(=O)=O)cc4)C3=N)n2)cc1OC	-2.7%	-7	?	12%	-23	4.8	0%
NC(=O)c1ccc(NC(=O)C2COc3ccccc3O2)cc1 (stereo not given)	0.9%	-15	-24%	11%	6	-4.8	-1%
Cc1cccc(C)c1NC(=O)N1CC=CCC1	0.0%	-10	-18%	13%	4	-20	1%
Cc1onc(-c2ccccc2Cl)c1C(=O)Nc1ccc(N2CCOCC2)cc1	-0.6%	6	-48%[inhibitor]	0%	-5	6.7	-2%
CC(CN1C(C)CCCC1C)OC(=O)c1cccc(F)c1 (stereo not given)	-1.1%	-12	?	8%	2	-10.0	10%
CC1Cc2ccccc2N1C(=O)COc1nc2ccccc2nc1N1CCOCC1 (stereo not given)	28µM*	24	-32%[inhibitor]	2%	6	9.2	3%
CN1CCN(c2ccc(NC(=O)c3ccc(-c4ccc(Br)cc4)o3)cc2)CC1	/	-2	7%	?	?	-3.4	-11%
C/C(=N\O)C(=O)NCCN1CCCCC1	0.9%	2	?	8%	9	-2.5	4%
CSc1nncn1/N=C/c1ccc2c(c1)OCO2	-27%	13	-5%	7%	-11	1.8	11%
COc1ccc2[nH]c(=O)c(CN(Cc3ccc4c(c3)OCO4)C(C)=O)cc2c1	-19%	10	-5%	13%	0	1.1	-3%
COc1cccc(CNC(=O)Cc2ccc(-c3ccccc3)cc2)c1	/	-14	-2%[15.4 µM]	4%	3	2.3	7%
CC(C)N=C1NN=C(c2cccs2)CS1	/	1	7%[15.4 µM]	-21%	0	-2.4	/
Cc1ccccc1C(=O)NNC(=O)c1ccc2nc[nH]c2c1	1.0%	6	-6%[15.4 µM]	/	2	/	10%
O=C(NC1CCN(C(=O)c2cccs2)CC1)c1ccccc1	0.7%	-8	-15%	15%	5	4.9	5%
CCCC(CCC)=NNC(=O)c1ccccc1F	/	-20	-5%[15.4 µM]	2%	1	0.9	2%
CC(C)n1cnc2c(N(C)c3ccccc3)nc(N(CCN(C)C)Cc3ccccc3)nc21	-14%	-30	/	?	?	4.0	3%
CCOC(=O)N1CCN(C(=S)Nc2ccccc2C)CC1	1.3%	2	14%	6%	3	-0.1	14%
COc1ccccc1N/C=C/c1onc(C)c1[N+](=O)[O-]	2.2%	-12	-50%[inhibitor]	4%	/	?	-3%
CC1(C)CC(=O)C2=C(C1)N(N1CCOCC1)C(N)=C(C#N)C2c1cccnc1 (stereo not given)	?	9	-35%[inhibitor]	-1%	8	0.9	-13%
Cc1ccc(N(C)S(=O)(=O)c2nnc(NC(=O)c3ccco3)s2)cc1	-2.6%&-5.3%	4	7%	32%[activator]	-6	4.6	-26%
Cc1ccc(NC(=O)Cn2ccsc2=N)c([N+](=O)[O-])c1	/	1	-7%[15.4 µM]	11%	-14	0.3	/
Cc1cccc(N(C)S(=O)(=O)c2ccc3[nH]cc(C(=O)N4CCOCC4)c(=O)c3c2)c1	?	/	-36%[inhibitor]	5%	-1	-0.4	-9%
CN(C)c1ccc(C(=S)N2CCN(C(=S)Nc3ccc(Cl)cc3)CC2)cc1	/	1	-4%[15.4 µM]	14%	-2	-1.9	8%
